Bioassay records deposited in PubChem BioAssay by Broad Institute.
Env_fusion_inh: inhibitors of HIV Env-mediated cell fusion | HeLa-JRFL Env/CEM21 cell fusion, luciferase | inhibition, % at 12.3 µM | 1.1% of 360,000 active | AID 651610;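 active means mean replicate inhibition score of at least 50 and every replicate individually at or above 50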;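 further: 0% = plate neutral controls and 100% = maraviroc near 300 nM; one replicate is shown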
UUG_fidelity: yeast start codon fidelity modulation; AID 602363; activity score, % at 18.7 µM; S. cerevisiae UUG-firefly luciferase reporter, luminescence/redox ratio; 0.13% of 350,000 active;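 active means replicate mean at a twofold rise or more, about +100% in these data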;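 further: firefly luciferase made from a UUG start codon reports start codon fidelity; reporter light over untreated wells divided by growth signal over untreated wells; some hits fall short of that in this replicate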
The depositor's hits bear a star; [ ] = remark or other dose.

SMILES Env_fusion_inh UUG_fidelity
Cc1noc(C)c1NC(=O)N(C)C[C@H]1Oc2ccc(NC(=O)Nc3ccc4c(c3)OCO4)cc2C(=O)N([C@@H](C)CO)C[C@@H]1C -7.5[16.7_µM] -10.8
CNC[C@H]1OCCCC[C@@H](C)Oc2ccc(NC(=O)Cc3ccccc3)cc2C(=O)N([C@H](C)CO)C[C@H]1C 20.5[16.7_µM] 15.8
O=C(C[C@@H]1C=C[C@H](NC(=O)Nc2cc(F)ccc2F)[C@H](CO)O1)NCc1ccncn1 -70.4[16.7_µM] 3.3
C[C@H](CO)N1C[C@H](C)[C@@H](CN(C)S(=O)(=O)c2cn(C)cn2)OCCCC[C@H](C)Oc2ccc(NS(=O)(=O)c3ccc(F)cc3)cc2C1=O 24.4[16.7_µM] 17.6
C[C@@H]1CN([C@H](C)CO)C(=O)c2cc(NS(=O)(=O)c3ccccc3)ccc2O[C@@H](C)CCCCO[C@H]1CN(C)Cc1ccncc1 -29.0[16.7_µM] -16.8
O=C(C[C@@H]1CC[C@H](NC(=O)c2cccnc2)[C@H](CO)O1)NCCN1CCCCC1 1.5[16.7_µM] -1.9
CCCC#Cc1ccc([C@@H]2[C@@H](CO)N(C(=O)C3CCC3)[C@H]2C#N)cc1 -11.9[16.7_µM] 9.2
COc1ccc(-c2ccc3c(c2)O[C@@H](CN(C)Cc2cccnc2)[C@@H](C)CN([C@H](C)CO)S3(=O)=O)cc1 -5.5[16.7_µM] -3.2
O=C(C[C@H]1C[C@@H]2c3cc(NC(=O)NC4CCCC4)ccc3O[C@@H]2[C@H](CO)O1)NCCc1ccccc1 13.8[16.7_µM] -17.0
C[C@H](CO)N1C[C@H](C)[C@H](CN(C)Cc2ccncc2)Oc2ncc(C#Cc3ccncc3)cc2C1=O 1.7[16.7_µM] -5.5
C[C@H](CO)N1C[C@H](C)[C@@H](CN(C)S(=O)(=O)c2cccs2)Oc2ccc(NC(=O)Nc3ccc(C(F)(F)F)cc3)cc2CC1=O -4.9[16.7_µM] -16.9
CCS(=O)(=O)Nc1ccc2c(c1)C(=O)N(C)[C@H]1CC[C@H](CC(=O)N3CCCCC3)O[C@@H]1CO2 -8.1[16.7_µM] 0.9
C[C@H]1CN([C@@H](C)CO)C(=O)Cc2cc(NC(=O)Nc3ccc(F)cc3)ccc2O[C@H]1CN(C)Cc1ccc(-c2ccccc2)cc1 -1.7[16.7_µM] 6.5
COc1ccc(CN(C)C[C@@H]2OCCCC[C@@H](C)Oc3ccc(NC(=O)Nc4ccc(C(F)(F)F)cc4)cc3C(=O)N([C@H](C)CO)C[C@H]2C)cc1 40.3[16.7_µM] 3.8
COc1ccc(NC(=O)Nc2ccc3c(c2)[C@@H]2C[C@@H](CC(=O)NC4CCCC4)O[C@H](CO)[C@@H]2O3)cc1 1.0[16.7_µM] -13.9
C[C@H]1CN([C@@H](C)CO)C(=O)c2cc(/C=C/c3ccccc3)cnc2O[C@H]1CN(C)Cc1ccccc1F -6.0[16.7_µM] 8.5
C[C@@H](O)C#Cc1ccc2c(c1)O[C@@H](CN(C)CC1CCOCC1)[C@@H](C)CN([C@@H](C)CO)S2(=O)=O -3.6[16.7_µM] -9.4
C[C@H](CO)N1C[C@H](C)[C@H](CN(C)Cc2ccc(Cl)c(Cl)c2)OCCCC[C@H](C)Oc2ccc(NC(=O)c3ccccc3)cc2C1=O 15.2[16.7_µM] 2.2
Cc1ccc(S(=O)(=O)Nc2ccc3c(c2)CC(=O)N([C@H](C)CO)C[C@H](C)[C@@H](CN(C)Cc2ccc(Cl)c(Cl)c2)O3)cc1 10.8[16.7_µM] 17.8
C[C@@H]1CN([C@@H](C)CO)C(=O)c2cc(NC(=O)CCCN(C)C)ccc2O[C@H]1CN(C)CC1CCCCC1 12.1[16.7_µM] -1.5
COc1ccc(NC(=O)Nc2ccc3c(c2)C(=O)N([C@@H](C)CO)C[C@H](C)[C@@H](CN(C)C(=O)Nc2ccccc2)O3)cc1 -14.6[16.7_µM] 2.6
COc1cccc(-c2ccc3c(c2)O[C@H](CN(C)Cc2cccnc2)[C@H](C)CN([C@@H](C)CO)S3(=O)=O)c1 -29.4[16.7_µM] -8.6
C[C@H](CO)N1C[C@H](C)[C@@H](CN(C)S(=O)(=O)c2ccc(Cl)cc2)OCCCC[C@H](C)Oc2ccc(NC(=O)NC3CCCCC3)cc2C1=O -28.5[16.7_µM] -16.8
C=CC[C@]1(C(=O)NCCCOC)COC(c2ccc(OCCCO)cc2)=N1 -2.7[16.7_µM] 30.7
CC(=O)N[C@@H]1CC[C@H](CC(=O)NCC2CCCCC2)O[C@@H]1CO -8.3[16.7_µM] -12.4

Not a retest: entries from further up.
SMILES Env_fusion_inh UUG_fidelity
COc1ccc(NC(=O)Nc2ccc3c(c2)C(=O)N([C@@H](C)CO)C[C@H](C)[C@@H](CN(C)C(=O)Nc2ccccc2)O3)cc1 -14.6[16.7_µM] 2.6
COc1cccc(-c2ccc3c(c2)O[C@H](CN(C)Cc2cccnc2)[C@H](C)CN([C@@H](C)CO)S3(=O)=O)c1 -29.4[16.7_µM] -8.6
C[C@H](CO)N1C[C@H](C)[C@@H](CN(C)S(=O)(=O)c2ccc(Cl)cc2)OCCCC[C@H](C)Oc2ccc(NC(=O)NC3CCCCC3)cc2C1=O -28.5[16.7_µM] -16.8
C=CC[C@]1(C(=O)NCCCOC)COC(c2ccc(OCCCO)cc2)=N1 -2.7[16.7_µM] 30.7
CC(=O)N[C@@H]1CC[C@H](CC(=O)NCC2CCCCC2)O[C@@H]1CO -8.3[16.7_µM] -12.4

Next records follow.
SMILES Env_fusion_inh UUG_fidelity
C[C@@H]1CN([C@@H](C)CO)C(=O)Cc2cc(NC(=O)Nc3ccc4c(c3)OCO4)ccc2O[C@H]1CN(C)Cc1ccc(-c2ccccc2)cc1 33.8[16.7_µM] -3.6
C/C=C/c1cnc2c(c1)C(=O)N([C@H](C)CO)C[C@H](C)[C@H](CN(C)Cc1ccncc1)O2 -14.3[16.7_µM] -3.6
COc1ccccc1-c1ccc2c(c1)O[C@@H](CN(C)C(=O)c1ccccc1)[C@@H](C)CN([C@@H](C)CO)S2(=O)=O -11.7[16.7_µM] 19.0
Cc1ccc(S(=O)(=O)Nc2cccc3c2O[C@@H](CN(C)Cc2ccc(C(=O)O)cc2)[C@@H](C)CN([C@H](C)CO)C3=O)cc1 5.2[16.7_µM] 12.7
Cc1ccc(S(=O)(=O)N(C)C[C@H]2Oc3ccc(NC(=O)Cc4cn(C)c5ccccc45)cc3C(=O)N([C@H](C)CO)C[C@H]2C)cc1 -11.6[16.7_µM] 6.2
COc1ccc(S(=O)(=O)N(C)C[C@@H]2OCCCC[C@H](C)Oc3ccc(NC(=O)Nc4cccc5ccccc45)cc3C(=O)N([C@@H](C)CO)C[C@H]2C)cc1 5.7[16.7_µM] -13.8
C[C@@H]1CCCCO[C@@H](CN(C)Cc2ccncc2)[C@H](C)CN([C@@H](C)CO)C(=O)c2cc(NC(=O)Nc3cccc4ccccc34)ccc2O1 -23.2[16.7_µM] 11.7
C[C@H](CO)N1C[C@H](C)[C@@H](CN(C)Cc2ccccc2)Oc2ncc(C#CC3(O)CCCC3)cc2C1=O 2.6[16.7_µM] -5.5
C[C@H]1CN([C@@H](C)CO)C(=O)c2cc(-c3ccccc3F)cnc2O[C@@H]1CN(C)C(=O)C1CCOCC1 -3.6[16.7_µM] -6.8
Cc1ccc(S(=O)(=O)Nc2ccc3c(c2)CC(=O)N([C@@H](C)CO)C[C@H](C)[C@H](CN(C)S(C)(=O)=O)O3)cc1 0.5[16.7_µM] 13.8
Cc1noc(C)c1NC(=O)N(C)C[C@H]1Oc2ccc(NC(=O)Cc3ccccc3)cc2CC(=O)N([C@@H](C)CO)C[C@@H]1C -14.3[16.7_µM] 18.7
Cc1noc(C)c1S(=O)(=O)Nc1ccc2c(c1)C(=O)N([C@@H](C)CO)C[C@H](C)[C@@H](CN(C)C(=O)C1CCCCC1)OCCCC[C@@H](C)O2 -4.4[16.7_µM] 5.1
C[C@@H]1CCCCO[C@@H](CN(C)C(=O)CCCN(C)C)[C@H](C)CN([C@@H](C)CO)C(=O)c2cc(NC(=O)Nc3ccccc3)ccc2O1 2.7[16.7_µM] 29.6
C[C@@H]1CN([C@@H](C)CO)C(=O)c2cc(-c3ccccc3)cnc2O[C@@H]1CN(C)C(=O)Cc1cccnc1 11.4[16.7_µM] -6.3
C[C@@H]1CN([C@H](C)CO)C(=O)Cc2cc(NC(=O)NC3CCCCC3)ccc2O[C@H]1CN(C)S(=O)(=O)c1cn(C)cn1 -1.8[16.7_µM] -0.5
C[C@@H]1CCCCO[C@H](CN(C)Cc2ccncc2)[C@@H](C)CN([C@H](C)CO)C(=O)c2cc(NS(=O)(=O)c3cn(C)cn3)ccc2O1 5.2[16.7_µM] -4.9
COc1ccc(NC(=O)N(C)C[C@H]2OCCCC[C@H](C)Oc3ccc(NS(=O)(=O)c4ccc(OC)cc4)cc3C(=O)N([C@@H](C)CO)C[C@@H]2C)cc1 -47.6[16.7_µM] 5.0
Cc1noc(C)c1NC(=O)N[C@@H]1CC[C@H](CCNC(=O)C2CCC2)O[C@H]1CO 13.8[16.7_µM] -5.4
CCC#CCN(Cc1ccccc1Br)[C@H](/C=C/c1ccccc1)[C@@H](O)Cc1ccccc1 1.0[16.7_µM] -2.0
Cc1noc(C)c1S(=O)(=O)Nc1ccc2c(c1)C(=O)N([C@H](C)CO)C[C@H](C)[C@@H](CN(C)Cc1ccc(C(F)(F)F)cc1)O2 12.8[16.7_µM] -3.2
C[C@@H]1CN([C@@H](C)CO)C(=O)c2cc(NC(=O)Nc3ccc(F)cc3)ccc2O[C@H]1CN(C)S(=O)(=O)c1cn(C)cn1 -16.2[16.7_µM] 3.1
C[C@@H]1CCCCO[C@H](CN(C)C(=O)c2ccccc2)[C@@H](C)CN([C@H](C)CO)C(=O)c2cc(NS(=O)(=O)c3ccccc3)ccc2O1 17.0[16.7_µM] -6.5
O=C(C[C@H]1C[C@@H]2c3cc(NS(=O)(=O)c4ccc(F)cc4)ccc3O[C@@H]2[C@H](CO)O1)NCCc1ccccc1 75.1*[16.7_µM] -6.0
CC(C)NC(=O)N(C)C[C@@H]1Oc2ccc(NC(=O)Nc3ccc(C(F)(F)F)cc3)cc2C(=O)N([C@H](C)CO)C[C@H]1C 6.8[16.7_µM] -0.4
C[C@H]1CN([C@@H](C)CO)C(=O)c2cc(NS(=O)(=O)c3ccc(Cl)cc3)ccc2O[C@@H]1CN(C)Cc1ccc(-c2ccccc2)cc1 10.6[16.7_µM] 4.0
Next section
SMILES Env_fusion_inh UUG_fidelity
C[C@@H]1CN([C@@H](C)CO)C(=O)c2cccc(NS(=O)(=O)c3ccc(F)cc3)c2O[C@@H]1CN(C)C(=O)Nc1ccccc1 -6.2[16.7_µM] 9.0
CC(C)NC(=O)Nc1cccc2c1O[C@H](CN(C)S(=O)(=O)c1cn(C)cn1)[C@H](C)CN([C@@H](C)CO)C2=O -16.4[16.7_µM] -6.8
CC(=O)Nc1ccc2c(c1)C(=O)N(C)[C@@H]1CC[C@@H](CC(=O)NCc3ccc4c(c3)OCO4)O[C@@H]1CO2 9.2[16.7_µM] 7.7
COc1ccc(S(=O)(=O)N(C)C[C@H]2Oc3ccc(NC(=O)Nc4ccccc4)cc3C(=O)N([C@@H](C)CO)C[C@@H]2C)cc1 4.3[16.7_µM] -14.4
CO[C@H]1CN(C)C(=O)c2cc(NS(=O)(=O)CC(F)(F)F)ccc2OC[C@H](C)N(C)C[C@@H]1C 12.7[16.7_µM] 5.4
COc1ccc(NC(=O)N(C)C[C@@H]2Oc3ncc(-c4cccc(C(F)(F)F)c4)cc3C(=O)N([C@H](C)CO)C[C@@H]2C)cc1 19.7[16.7_µM] 5.9
CCCC#Cc1cnc2c(c1)C(=O)N([C@@H](C)CO)C[C@H](C)[C@H](CN(C)C(=O)Nc1cc(F)ccc1F)O2 8.6[16.7_µM] 13.8
COc1ccc(C#Cc2ccc3c(c2)[C@]2(C(=O)N3)[C@H](c3ccc(OCCO)cc3)N3[C@H](c4ccccc4)[C@H](c4ccccc4)OC(=O)[C@H]3[C@@H]2C(N)=O)cc1 0.9[16.7_µM] -1.8
O=C(Nc1ccc(Cl)cc1)N[C@H]1CC[C@@H](CCNS(=O)(=O)c2ccccc2F)O[C@@H]1CO -5.4[16.7_µM] 15.1
C[C@@H]1CN([C@@H](C)CO)C(=O)c2cc(NC(=O)Nc3ccc4c(c3)OCO4)ccc2O[C@H]1CN(C)C(=O)Nc1ccccc1 -2.7[16.7_µM] 7.8
C[C@@H]1CCCCO[C@@H](CN(C)C(=O)Nc2ccc(F)cc2)[C@H](C)CN([C@@H](C)CO)C(=O)c2cc(NS(=O)(=O)c3ccc(F)cc3)ccc2O1 -73.1[16.7_µM] -11.4
COc1ccc(NC(=O)N[C@H]2C=C[C@H](CC(=O)NCc3ccccn3)O[C@H]2CO)cc1 7.4[16.7_µM] -18.9
CC(C)C#Cc1ccc2c(c1)O[C@H](CN(C)C(=O)Nc1ccccc1)[C@@H](C)CN([C@H](C)CO)S2(=O)=O -10.7[16.7_µM] -1.1
Cc1noc(C)c1NC(=O)Nc1cccc2c1O[C@H](CN(C)Cc1ccccc1)[C@@H](C)CN([C@@H](C)CO)C2=O 8.7[16.7_µM] 0.4
COc1ccc(S(=O)(=O)N(C)C[C@H]2Oc3ccc(NS(=O)(=O)c4c(C)noc4C)cc3CC(=O)N([C@@H](C)CO)C[C@@H]2C)cc1 -2.4[16.7_µM] 19.3
CCNC(=O)C[C@@H]1C=C[C@H](NC(=O)C2CCC2)[C@@H](CO)O1 -25.2[16.7_µM] -2.9
C[C@H](CO)N1C[C@H](C)[C@@H](CN(C)C(=O)c2ccc(F)cc2)Oc2ncc(C3=CCCC3)cc2C1=O 2.9[16.7_µM] 1.6
COc1ccc(-c2ccc3c(c2)O[C@@H](CN(C)Cc2ccccc2C(=O)O)[C@H](C)CN([C@@H](C)CO)S3(=O)=O)cc1 -1.7[16.7_µM] -3.0

Only part of the results is shown; the hit share may differ from the screen's.
